# AID504770 = E. coli YBA685 growth inhibition, screen for V. cholerae RctB inhibitors; E. coli YBA685 rctB-dependent plasmid, OD600 growth, 3 h; stronger effect = lower value; z-score (no concentration beside the values); hit rate 0.27% among 130,000;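 active = z-score under -2 on both plates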;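 note: wells of about 30 µL received 100 nL stock; score is relative to mean and SD of the test wells; the first replicate is given; strong numbers were not always called active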
# CapD inh = blocks the Bacillus anthracis CapD enzyme; purified CapD enzyme, fluorescence intensity read-out; stronger effect = lower value; some hits fall short of the stated cut; z-score (concentration not given with the values); hit rate 0.23% among 140,000;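 active = z-score under -4 in either of two replicates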;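 note: stock transfer was 100 nL into about 40 µL; score is relative to mean and spread of the plate; one replicate is shown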
# * marks the source's active call; other numbers are inactive results; . = no result given.
structure	AID504770	CapD inh
CCc1ccc(C2(c3ccc(CC)cc3)SC3(SC(C(C)=O)=NN3c3ccc(Br)cc3)c3ccccc32)cc1 (stereo not given)	.	-0.31
c1ccc2c(c1)nc1n2CCC1	1.9	.
[N-]=C=C1C(=O)N(CCc2ccccc2)C(=O)[C@H]([n+]2ccccc2)[C@H]1c1ccc(Cl)cc1	0.5	-0.38
O=C(NCC(O)c1ccccc1)Nc1ccc2c(c1)CCO2 (stereo not given)	-0.9	-0.58
Cc1cc(Br)ccc1NC(=O)Cn1cnc2c1c(=O)n(C)c(=O)n2C	.	-0.08
NC(=O)c1ccsc1NC(=O)c1cc(-c2ccccc2)nc2ccccc12	0.7	-0.17
COc1ccc(CCNC(=S)Nc2ccc(Br)c(C)c2)cc1OC	.	0.21
CC(C)Nc1nc(NC(C)C)nc(Oc2ccc(=O)[nH]n2)n1	-1.1	0.1
O=C(COC(=O)c1cc(Br)ccc1O)NCc1ccccc1	-2	-0.42
N#Cc1ccc(CSc2nnc(-c3cccs3)n2-c2ccccc2)cc1	0.55	-0.15
Cc1cc(C)n2c(nc(=O)c3ccccc32)c1C#N	-0.1	.
O=C(C1CCCN(S(=O)(=O)c2ccc3nc(-c4ccccc4)[nH]c3c2)C1)N1CCc2ccccc21 (stereo not given)	-0.45	-0.25

structure	AID504770	CapD inh
COc1ccc(CCN2C(=O)CSC2c2ccc(OC)c(OC)c2)cc1OC (stereo not given)	.	0.35
CSc1nnc(SCC(=O)Nc2c(C#N)c(C)c(C)n2Cc2ccco2)s1	0.3	.
CCCN1CCC(N(C(=O)c2cccc(NC(=O)C(c3ccccc3)c3ccccc3)c2)C2CC2)CC1	.	-0.16
CC(C)(C)c1cc2ncnc(NCc3ccc4c(c3)OCO4)c2s1	-0.45	-0.27
CC1CCCC(NC(=O)CNC(=O)c2cccs2)C1C (stereo not given)	0.35	.
CCc1ccc2[nH]c(=O)c(C(c3nnnn3C(C)(C)C)N3CCc4ccccc43)cc2c1 (stereo not given)	0.2	.
CCOC(=O)c1c(CSc2ccccc2)n(C)c2cc(Br)c(O)c(CN(C)C)c12	.	-0.58
CN(C)C(=O)C1Cc2ccccc2CN1S(=O)(=O)c1ccc(F)cc1 (stereo not given)	1.5	.
CCN1/C(=C2\C(=O)N(c3ccc(Cl)cc3)N=C2C)C=Cc2ccccc21	-0.45	.
O=C(/C=C/c1ccccc1)Nc1nccs1	-0.25	0
CCOc1cc(C=C2C(=O)N(C)C(=O)N(C)C2=O)ccc1OCCOc1ccccc1	.	0.035
CSc1nsc(SCC(=O)OC2CC3CCC2(C)C3(C)C)n1 (stereo not given)	2.2	-0.39

structure	AID504770	CapD inh
CC(C)OC(=O)/C(C#N)=C/c1ccco1	0.15	.
Cc1cccc(C)c1NC(=O)NNC(=O)c1sccc1-n1cccc1	.	-1
COc1ccc(NC(=O)N2CC(C)OC(C)C2)c(OC)c1 (stereo not given)	-0.5	0.08
COc1ccccc1N(CC(=O)NCC1CCCO1)S(=O)(=O)c1ccc(C)cc1 (stereo not given)	2.2	30
O=C1CCCc2nc3nc4ccccc4n3cc21	1.6	-0.15
O=C(/C=C/c1ccccc1)Nc1cccnc1	-0.75	.
O=C(O)CCCC(=O)Nc1nc2ccccc2[nH]1	-0.75	0.85
CCOC(=O)c1c(Cl)c(C(C)(C)C)nc(Sc2ccccn2)c1C#N	-0.35	-0.57
COc1cc(Nc2cnn(-c3nc4ccccc4s3)c(=O)c2Cl)cc(OC)c1	-0.65	-0.61
CC(C)=NNC(=O)C(NC1CCCCC1)c1ccccc1 (stereo not given)	1.4	.
O=S(=O)(CCSc1nccc(-c2cccs2)n1)c1ccc(F)cc1	-0.15	3.3
COc1ccc(C2=CSC3=NS(=O)(=O)CCN23)cc1Cl	0.65	.

structure	AID504770	CapD inh
COc1ccccc1NC(=O)c1sc2ncnc(N3CCN(c4ccccn4)CC3)c2c1C	.	-1.2
CCN(CC)c1cc(CS(=O)c2ccccc2)nc(-c2ccccc2)n1 (stereo not given)	0.25	-0.47
O=c1oc(-c2ccco2)nc2sc3c(c12)CCCC3	-0.3	-0.39
CC(C)c1cc(C(=O)O)on1	0.5	.
COc1ccc(-c2nc(CS(=O)CC(=O)NC(C)c3ccccc3)c(C)o2)cc1OC (stereo not given)	-0.6	0.58
COc1ccc(O)c(/C=N/NC(=O)c2ccn(Cc3ccc(Cl)cc3)n2)c1	-0.25	12
NC(=O)Cn1cc(C(=O)C2CC2)c2ccccc21	-1.4	1.4
CCOC(=O)c1c(NC(=O)c2ccco2)sc2c1CCN(C(=O)OCC)C2	.	-0.19
Cc1ccc(Cn2nccc2NC(=O)c2cccnc2Sc2ccccc2)o1	0.45	.
CC(N=Cc1nc2ccccc2n1C)C12CC3CC(CC(C3)C1)C2 (stereo not given)	-0.5	-0.035
COCCN1C(=O)C(=O)/C(=C(/O)c2ccccc2)C1c1ccc(OC)cc1OC (stereo not given)	.	-2
CN(C)S(=O)(=O)c1cccc2c1N(C(=O)CCC(=O)O)CC2	.	-0.51

# One compound at a time (already shown).
# Profile of `NC(=O)Cn1cc(C(=O)C2CC2)c2ccccc21` : AID504770: -1.4; CapD inh: 1.4
# Profile of `Cc1ccc(Cn2nccc2NC(=O)c2cccnc2Sc2ccccc2)o1` : AID504770: 0.45; CapD inh: .

# Other structures:
structure	AID504770	CapD inh
CC(=O)NC1CC2CCCC(C1)N2S(=O)(=O)c1ccccc1 (stereo not given)	0.35	.
CCCCOc1ccc(/C=c2\sc3nc(=O)c(C)nn3c2=O)cc1	.	-0.33
Cc1nc(-c2ccc(Oc3ncc(C(F)(F)F)cc3Cl)cc2)no1	0.6	1.3
Cn1c(N)c(C(=O)Cn2nnc3ccccc3c2=O)c(=O)n(C)c1=O	-0.05	.
O=C(Cn1c(=O)oc2cc(Cl)ccc21)Nc1nccs1	.	0.28
CN(C)c1ccc(C(O)P(=O)(c2ccccc2)c2ccccc2)cc1 (stereo not given)	.	-0.065
Cc1ccc(C(=O)c2cccc(N)c2)cc1C	1.1	-2
O=C(CC(=O)N1CCc2ccccc2C1)N1CCc2ccccc2C1	-0.6	0.13
Cc1cc(C)c(C#N)c(N2CCN(c3cccc(C)c3C)CC2)n1	1.6	.
O=C(CSc1ccc(-c2ccncc2)nn1)N1CCCCC1	-1.6	-0.22
CC(C)(C)C1CC=C2C(C#N)=C(N)C(C#N)(C#N)C(c3c[nH]c4ccccc34)C2C1 (stereo not given)	.	-0.28
N#CCCN(CCC#N)c1ccc(/C=N/NC(=O)c2ccc([N+](=O)[O-])o2)cc1	.	-1.2

structure	AID504770	CapD inh
CC(C)C(=O)Nc1c(C(=O)NC(C)(C)C)oc2ccccc12	-1.6	46
O=C1c2ccccc2-c2cc(Cl)nc3ccc(Cl)c1c23	.	-0.23
O=C(C1COc2cc(S(=O)(=O)N3CCCC3)ccc2O1)N1CCCC1 (stereo not given)	-0.4	0.53
CN(CC(=O)Nc1ccc(Cl)c(Cl)c1)CC(=O)Nc1ccc2[nH]c(=O)[nH]c2c1	-0.7	.
CC(Oc1ccc(/C=C2\C(=O)NC(=O)N(c3ccc4c(c3)OCO4)C2=O)cc1)C(=O)O (stereo not given)	.	0.2
Cc1ccccc1NS(=O)(=O)c1cc(Br)cnc1N	-0.05	5.8
COc1ccc(-n2c(=S)[nH]c3cc(C(=O)Nc4cc(C(N)=O)ccc4OC)ccc3c2=O)cc1	.	-0.03
CCCn1c(SCC(=O)Nc2ccccc2C(F)(F)F)nnc1-c1ccoc1C	0.15	.
Cc1ccc(Cl)cc1NC(=S)N(CCC#N)/N=C/c1ccc2c(c1)OCO2	.	-0.52
N#CCC(=O)Nc1ccc(F)c(Cl)c1	.	0.39
O=C1OC(C(=O)NC2CCCCC2)Cc2ccccc21 (stereo not given)	-1.2	-0.44
COc1ccc(OCCOC(=O)c2cccn2C)cc1	-0.55	.

structure | AID504770 | CapD inh
COC(=O)Cn1c(=O)oc2ccc(Cl)cc21 | 0 | 0.58
COc1ccc(CN(C)C(=O)c2ccc(OC)c(OC)c2)cc1 | 0.25 | -0.2
O=C(O)c1cccc(N2C(=O)c3ccc(C(=O)O)cc3C2=O)c1 | -0.35 | 0.97
CN(C)/C=N/C(=S)Nc1cccc(F)c1 | 0.5 | -1.2
CCOC(=O)N1CCN(C(=O)c2ccc(N3CC4CC(C3)c3cccc(=O)n3C4)c(NC(=O)c3cccnc3)c2)CC1 (stereo not given) | . | 0.01
C/C(=N\O)C(C)(C)Nc1ccc(C(C)(C)C)cc1 | -2.1 | 0.36
O=c1oc2ccccc2c(N2CCN(c3ccccc3)CC2)c1CN1CCCC1 | -0.4 | 5.6
CCOC(=O)CSc1ncc(OC)c(Oc2cccc([N+](=O)[O-])c2)n1 | . | 0
COC(=O)C(NC(=O)c1ccccc1)=C1C=C(C)OC(C)=C1 | -0.05 | .
COc1ccc(-c2cc(C(=O)NC(C)C)no2)cc1 | 1.3 | -1.2
COc1ccc(/C=N/C2=NNC(=O)CS2)cc1 | 0.6 | -1.1
Cc1ccc(NC(=O)Cc2cccs2)cc1C | -0.5 | 0.17
O=C1CCC(NC(=O)OCc2ccccc2)(C(=O)O)O1 (stereo not given) | -0.55 | .
Cc1cc2nnc(SCC(=O)Nc3c(Cl)cccc3Cl)n2c2ccccc12 | . | 7.1
CCc1nc2c(sc(=S)n2-c2ccccc2)c(=O)[nH]1 | -0.3 | -2.4

# Of the compounds above, these have a CF3 group:
structure | AID504770 | CapD inh
Cc1nc(-c2ccc(Oc3ncc(C(F)(F)F)cc3Cl)cc2)no1 | 0.6 | 1.3
CCCn1c(SCC(=O)Nc2ccccc2C(F)(F)F)nnc1-c1ccoc1C | 0.15 | .

# More results.
structure | AID504770 | CapD inh
CCCc1ccc(OCC(O)CN2CCCCC2)cc1 (stereo not given) | -0.65 | 0.085
O=C(Cn1ncc(Cl)c(Cl)c1=O)c1ccc(S(=O)(=O)N2CCCC2)cc1 | -0.15 | .
COc1ccccc1-n1cnc(N)c1C(=O)c1ccccc1 | 1.6 | -1.3
CCOC(=O)c1ccc(NCc2cc(Br)ccc2O)cc1 | -0.1 | 1.1
Cc1ccc(C)c(CSC2=NN3CCCC(=O)N=C3S2)c1 | -0.6 | .
Cc1ccsc1CNC(=O)Nc1ccc(C(F)(F)F)cc1 | 2.3 | -0.76
Cc1ccc(C2CC(=O)C3=C(C2)Nc2ccccc2NC3c2cccnc2)cc1 (stereo not given) | -0.45 | -4*
CSc1nnc2c(n1)OC(C1CC=C(C)CC1)Nc1ccccc1-2 (stereo not given) | -0.7 | -0.45
COc1ccc2c(=O)c(N3C(=O)c4ccccc4C3=O)c(C)oc2c1 | 0.7 | 0.4
Cc1ccccc1NS(=O)(=O)c1ccc2oc(=O)ccc2c1 | -0.65 | -0.44
CCOC(=O)c1[nH]c(C(=O)O)c(CC)c1C | 1.6 | -0.59
CN1C(=O)/C(=C(\C#N)C(=O)Nc2cc(Cl)ccc2Cl)c2ccccc21 | -3.3 | 0.69
FC(F)(F)c1ccc(-c2nc(-c3ccc(C(F)(F)F)nc3)ncc2-c2cnc3ccccc3n2)cc1 | . | -0.51
CCOC(=O)C1=C(C)NC2=C(C(=O)C(C(=O)OCC)C(c3ccccc3OC)C2)C1c1sccc1C (stereo not given) | . | 6.6
COC(=O)C(C#N)=C(SC)SC | -1.6 | .

structure | AID504770 | CapD inh
CCOC(=O)C1CCN(C(=O)c2ccc(CNS(=O)(=O)c3ccc(C)cc3)cc2)CC1 | 1.9 | 0.015
CN(c1ccccc1)S(=O)(=O)c1ccc(Cl)cc1 | -0.75 | -0.15
O=C(NNC(=O)c1ccc(F)cc1)OCCCCCc1ccccc1 | . | 0.7
Cc1ccc(NC(=O)/C(=C/c2ccc3c(c2)OCO3)NC(=O)c2ccc(Br)cc2)cc1 | . | -0.29
O=C(OCC(=O)c1c[nH]c2ccccc12)c1cccc(O)c1 | -1.3 | .
CC(C)c1ccccc1NC(=O)COc1ccccc1F | -0.6 | -0.59
COC(=O)CNc1ccc(Br)cc1 | -0.4 | 0.22
CCOC(=O)c1c2n(c3ccc(OC(C)=O)cc13)CCC2 | -0.45 | -0.22
CCCCN1CNC(=S)NC1 | 1.2 | 0.55
CCC(=O)Nc1cccc(C(=O)N/N=C/c2cc(F)cc(F)c2)c1 | . | 0.38
CC(=O)N1CCC(N2Cc3ccccc3-n3cccc3C2C(=O)NCc2cccc(C(F)(F)F)c2)CC1 (stereo not given) | . | -0.2
Cc1nc(N2CCN(c3ccccn3)CC2)c2c(C)c(C(=O)Nc3ccc([N+](=O)[O-])cc3C)sc2n1 | . | -0.54
COc1ccccc1-c1nn(-c2cccc(C(F)(F)F)n2)c(=O)o1 | -0.15 | 1.1
Cc1cccc(Cl)c1NC(=O)Nc1ccc(N2CCCCC2)cc1 | 0.2 | -0.34
O=C(Nc1nc(-c2ccncc2)cs1)C1CCCCC1 | -0.95 | -0.79

# 4 compounds picked at random from the list so far, as already listed:
structure | AID504770 | CapD inh
Cc1ccc(NC(=O)/C(=C/c2ccc3c(c2)OCO3)NC(=O)c2ccc(Br)cc2)cc1 | . | -0.29
CCCCN1CNC(=S)NC1 | 1.2 | 0.55
CC(C)c1ccccc1NC(=O)COc1ccccc1F | -0.6 | -0.59
CN(c1ccccc1)S(=O)(=O)c1ccc(Cl)cc1 | -0.75 | -0.15

# Carrying on:
structure | AID504770 | CapD inh
FC(F)(F)c1ccc(N2CCN(c3cc(C(F)(F)F)nc4ccccc34)CC2)nc1 | -0.5 | 1.9
Nc1c(C(=O)NCc2ccccc2)sc2nc3c(c(-c4ccco4)c12)CCC3 | . | -1.6
CCn1c(=O)cc(SCC(=O)N2CCCC2)c2ccccc21 | -0.55 | 3.9
COC(=O)Cn1c(=NC(=O)/C=C/c2cccs2)sc2cc(Br)ccc21 | 1.4 | 5.7
O=C1c2c(Cl)c(Cl)c(Cl)c(Cl)c2C(=O)N1C1C(=O)N(c2ccc(Cl)cc2)C1c1cccs1 (stereo not given) | . | 0.13
